Assay outcomes: PubChem, National Center for Advancing Translational Sciences (NCATS)
VDR inh – Inhibitors of the vitamin D receptor (VDR): qHTS; Vitamin D3 receptor (Homo sapiens), P11473; VDR-SRC2-3 peptide fluorescence polarization, 2 h; Potency, µM, without a hit: max response, negative = inhibition, usual class: inhibitors; hit rate 0.93% among 400,000; active = well fitted inhibition curve with a large enough effect; inconclusive = small, poorly fitted or top-dose-only effect, or another doubt; inactive = no such curve, though single readings can be large or run the other way; note: series mostly up to about 120 µM
Target sequence (P11473 whole entry, looked up): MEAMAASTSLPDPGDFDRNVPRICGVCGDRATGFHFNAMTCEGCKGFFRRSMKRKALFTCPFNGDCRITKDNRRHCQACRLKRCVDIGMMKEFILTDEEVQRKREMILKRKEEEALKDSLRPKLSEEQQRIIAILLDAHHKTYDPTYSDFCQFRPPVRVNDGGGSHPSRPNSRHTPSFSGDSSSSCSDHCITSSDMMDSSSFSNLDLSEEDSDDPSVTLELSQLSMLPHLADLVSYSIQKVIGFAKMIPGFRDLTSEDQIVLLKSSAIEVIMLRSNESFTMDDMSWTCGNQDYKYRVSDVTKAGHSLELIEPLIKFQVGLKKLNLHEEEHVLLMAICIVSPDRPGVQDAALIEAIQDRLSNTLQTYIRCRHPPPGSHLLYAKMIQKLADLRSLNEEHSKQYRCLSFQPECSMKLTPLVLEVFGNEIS
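Fluorescence polarization assay of small-molecule disruption of VDR binding to coregulator peptide SRC2-3. Compounds and controls pin-transferred, then read after 2 h incubation at ambient room temperature.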
Active calls of the source: *; ? = inconclusive; [ ] = dose if it differs, or a comment. % is set by controls: 0 for no effect and ±100 for the full control effect; potency is the fitted concentration of half-maximal effect.

SMILES	VDR inh
Cc1ccc(S(=O)(=O)N2CCN(C(=O)c3ccc(-n4cncn4)c([N+](=O)[O-])c3)CC2)cc1C	-16%
CCOc1ccc(CCNC(=O)c2ccc3c(c2)N(Cc2ccccc2F)C(=O)c2ccccc2S3=O)cc1OCC (stereo not drawn)	2%
CCCCN(C(=O)c1cccc(-c2ccc(OC(C)=O)cc2)c1)c1c(N)n(CCC)c(=O)[nH]c1=O	5%
COc1c(/C=N/Nc2ccc(C(=O)O)cc2)c(CCN(C)C(C)=O)cc2c1OCO2	-16%
NS(=O)(=O)c1ccc(CNC(=S)NC2CC2)cc1	-12%
O=C(O)c1ccc(Cl)c(S(=O)(=O)Nc2ccc3[nH]c(=O)[nH]c3c2)c1	-3%
CCN1/C(=C/C=C/c2oc3ccc(-c4ccccc4)cc3[n+]2CC)Oc2ccc(-c3ccccc3)cc21	23%
CCOC(=O)C1(CCc2ccccc2)CCN(C(=O)CCn2cnnn2)CC1	7%
CCOC(=O)N1CCN(C(=O)COCc2cc(-c3ccc4c(c3)OCO4)on2)CC1	-13%
C=CCOc1ccc(/C=C/C(=O)OCC(=O)N(C)CC(=O)Nc2ccccc2Cl)cc1	-19%
O=C(CSc1nc2ncccc2[nH]1)NCc1ccco1	-14%
Cc1c(C(=O)Nc2ccc(S(=O)(=O)N(C)C3CCN(C)CC3)cc2)oc2c(Cl)cccc12	-22%
COC(=O)Nc1ccc(S(=O)(=O)N2CCCC(C(=O)N3CCN(C)CC3)C2)cc1 (stereo not drawn)	-11%
CCCCCCCSc1nc(N)cc(=O)[nH]1	-11%
Cc1cnn(CCC(=O)NNC(=S)Nc2ccccc2)c1	16%
COCCn1nnnc1C(c1cccc(C(F)(F)F)c1)N1CCN(Cc2ccccc2)CC1 (stereo not drawn)	-11%
O=C(Nc1ccc(N2CCOCC2)cc1)c1ccc(Cl)cc1N1CCCC1=O	-20%
CCN1CCN(c2ccc(S(=O)(=O)N3CCCCC3)cc2NC(=O)c2ccc(C)o2)CC1	-10%
CCCSc1oc(-c2cccs2)nc1S(=O)(=O)c1ccc(C)cc1	-1%
O=c1[nH]c2ccccc2nc1/C=C/c1ccc(Cl)cc1	22µM*
O=C(CCCOc1ccc(Cl)cc1Cl)NCCCO	3%
Cc1cc(C)cc(NC(=S)N2CCN(CCO)CC2)c1	0%
C1CN(c2nc(N3CCOCC3)nc(N3CCOCC3)n2)CCO1	-22%
COC(=O)c1ccc(COc2ccccc2/C=C(\C#N)C(=O)Nc2c(C)cc(C)cc2C)cc1	-8%
CC(=O)O[C@@H]1[C@@H](O)[C@@H](O)[C@H](Oc2c(-c3ccc(O)cc3)oc3c(CC=C(C)C)c(O)cc(O)c3c2=O)O[C@H]1C	1%
CCc1nnc(NC(=O)CSc2ccc(Cl)cc2)s1	2%
COCCn1c(SCC(=O)Nc2ccccc2C(F)(F)F)nc2ccccc2c1=O	-1%
CC(C)CC(=O)Nc1nnc(SCC(=O)NCC2CCCO2)s1 (stereo not drawn)	-3%
CCN(CC)c1nc(N(CC)CC)[nH]c(=O)n1	0%
CC1CCCCC1n1c(-c2cccnc2)n[nH]c1=S (stereo not drawn)	2%
Cc1ccc(-n2ncc(C(=O)N3CCN(c4cccc(C)c4)C(C)C3)c2C2CCN(C(=O)OC(C)(C)C)CC2)cc1 (stereo not drawn)	3%
CCOc1ccccc1/C=C/c1onc(C)c1S(=O)(=O)N1CCC(C(=O)NC(C)(C)C)CC1	-11%
COc1ccc(O)c(C(=O)c2cc(C#N)c(=O)n(CC3CCCO3)c2)c1 (stereo not drawn)	-11%
O=C(O)c1nccnc1C(=O)N1CCN(c2ccccc2)CC1	-17%
COc1ccc(NC(=O)CN(c2c(C)cccc2C)S(C)(=O)=O)cc1	-24%
CCOC(=O)C1CCCN(C(=O)Cn2cccc2C(=O)c2ccccc2)C1 (stereo not drawn)	9%
COC(=O)c1ccc(COC(=O)c2cc3ccccc3oc2=O)cc1	-21%
COc1cc(NS(=O)(=O)c2ccc3c(c2)oc(=O)n3C)cc(OC)c1OC	-5%
COc1ccccc1CNC(=O)c1cc(-c2ccccc2C)n(CC2CC(c3cccc([N+](=O)[O-])c3)=NO2)n1 (stereo not drawn)	-7%
Cc1oc2c(c1C(=O)NCc1ccccc1)CCCC2	1%

Structural class, the entries above containing a halogen.
SMILES	VDR inh
CCOc1ccc(CCNC(=O)c2ccc3c(c2)N(Cc2ccccc2F)C(=O)c2ccccc2S3=O)cc1OCC (stereo not drawn)	2%
O=C(O)c1ccc(Cl)c(S(=O)(=O)Nc2ccc3[nH]c(=O)[nH]c3c2)c1	-3%
C=CCOc1ccc(/C=C/C(=O)OCC(=O)N(C)CC(=O)Nc2ccccc2Cl)cc1	-19%
Cc1c(C(=O)Nc2ccc(S(=O)(=O)N(C)C3CCN(C)CC3)cc2)oc2c(Cl)cccc12	-22%
COCCn1nnnc1C(c1cccc(C(F)(F)F)c1)N1CCN(Cc2ccccc2)CC1 (stereo not drawn)	-11%
O=C(Nc1ccc(N2CCOCC2)cc1)c1ccc(Cl)cc1N1CCCC1=O	-20%
O=c1[nH]c2ccccc2nc1/C=C/c1ccc(Cl)cc1	22µM*
O=C(CCCOc1ccc(Cl)cc1Cl)NCCCO	3%
CCc1nnc(NC(=O)CSc2ccc(Cl)cc2)s1	2%
COCCn1c(SCC(=O)Nc2ccccc2C(F)(F)F)nc2ccccc2c1=O	-1%

The listing continues:
SMILES	VDR inh
CC(=O)Nc1cccc(-c2nc3ccc(NC(C)=O)cc3s2)c1	-7%
Cc1ccc(OCCn2cc(/C=N/NC(=O)c3ccncc3)c3ccccc32)cc1	8%
COc1ccccc1CCNC(=O)c1ccc2c(c1)c(C)c(C)n2C	14%
O=C(CN1CCC(n2nnc3cc(F)ccc32)CC1)NCCc1nc2ccccc2[nH]1	-9%
CCOc1ccc(N=C2NC(=O)/C(=C/C(=O)OC)S2)cc1	?
CCCCc1ccc(NC(=O)CSc2nnc(C)c(=O)n2N)cc1	11%
O=C(O)c1cc2c(=O)c3ccccc3oc2nc1C(F)(F)F	0%
COc1ccc(S(=O)(=O)N2CCOCC2)cc1NC(=O)CC1CC2CCC1C2 (stereo not drawn)	-3%
COc1ccc(NC(=O)CSc2nc(-c3ccco3)nc3cc(=O)[nH]n23)cc1	-2%
CCCCCCCCNc1ncnc2ccccc12	17%
CCOC(=O)N1CCN(C(=O)c2ccc(Cl)nc2)CC1	4%
O=C(COC(=O)c1ccc(Cl)nc1)NCCc1ccc(Cl)cc1	-4%
CC1=Nc2cc(C(=O)NCC3CCCO3)ccc2Sc2ccc(Br)cc21 (stereo not drawn)	-27%
Nc1cc(N)cc(-c2nc3ccccc3[nH]2)c1	-1%
CCCOc1ccc(C2c3c(-c4ccccc4O)n[nH]c3C(=O)N2Cc2cccnc2)cc1 (stereo not drawn)	16%
O=C(Nc1ncc(C(F)(F)F)cc1Cl)C1COc2ccccc2O1 (stereo not drawn)	-18%
CCOC(=O)CN1C(=N)N(c2nc(NC(C)C)nc(OC)n2)CC1=O	-3%
Cc1cc(Br)ccc1NC(=O)COc1cc(=O)n(C)c2ccccc12	-23%
O=C(c1ccccc1)c1ccc(C(=O)N2CCN(c3ccc(F)cc3)CC2)o1	4%
COc1ccc(CNc2ccc([N+](=O)[O-])cn2)cc1	-6%
CCCc1cc(=O)[nH]c(SCC(=O)NC)n1	11%
O=C(CSc1nc2ccccc2c(=O)n1CC1CCCO1)Nc1ccc(F)cc1 (stereo not drawn)	3%
CCOC(=O)c1c(SCC(=O)Nc2nccs2)nc(C)c(C)c1C	-1%
Cn1c(SCCN2CCCCC2)nnc1-c1ccccc1Br	14%
CC1(C)CC2(CCO1)OC(=O)CC2C(=O)NCCc1ccccc1 (stereo not drawn)	13%
Cc1nc2ccc(N)cc2s1	-18%
Clc1ccc2nc(C3CCN(Cc4ccccc4)CC3)[nH]c2c1	-4%
NC(N)=Nc1nc(-c2ccccc2)c2cc(F)ccc2n1	16%
COc1ccc(CNC(=O)c2ccc3c(=O)n(CCCN4CCCC4=O)c(=S)[nH]c3c2)cc1	-13%
O=C(Cn1cc(C(F)(F)F)ccc1=O)NCCc1ccc(Cl)cc1Cl	-3%
CC(=O)N1CCc2c(sc(NC(=O)Cc3ccccc3)c2C(N)=O)C1	-18%
COc1ccc(NC2=NCCCCC2)cc1	4%
O=C(/C=C/c1ccco1)N1CCN(C/C=C/c2ccccc2)CC1	-9%
O=C(CSc1nccn1Cc1ccco1)Nc1ccccc1	-26%
COc1ccc(OCC(=O)Nc2ccc3nn(-c4ccc(OC)cc4)nc3c2)cc1	2%
N[C@@H](Cc1c[nH]c2ccccc12)C(=O)O	2%
CCCCN(CCCC)Cc1ccc(N)cc1	-1%
O=C(NCC1CCCO1)c1ccc(COc2ccccc2)o1 (stereo not drawn)	9%
C[C@H](CO)N1C[C@H](C)[C@@H](CN(C)C(=O)Nc2ccc3c(c2)OCO3)Oc2c(NC(=O)C3CC3)cccc2C1=O	6%
CC(C)N(Cc1ccccc1)C(=O)c1cc2ccc3cccnc3c2[nH]1	-7%
Cc1ccc2c(c1)-c1c(c(C(=O)NCCc3ccccc3)nn1C)CS2	11%
COc1ccc(N(CC(=O)Nc2cc(OC)ccc2OC)S(=O)(=O)c2c(C)nn(C)c2C)cc1	-10%
Cc1cc(Sc2nc(N(C)C)nc(N(C)C)n2)nc(Cl)n1	-7%
CC(C)Oc1cccc(C(=O)C2CCCN(C(=O)c3ccoc3)C2)c1 (stereo not drawn)	18%
COc1ccc(CCn2c(=N)c(C(=O)NCC3CCCO3)cc3c(=O)n4ccccc4nc32)cc1 (stereo not drawn)	-18%
COc1cc(/C=C2\CC(C(C)(C)C)C/C(=C\c3cc(OC)c(OC)c(OC)c3)C2=O)cc(OC)c1OC (stereo not drawn)	-21%
CCN(CC)S(=O)(=O)c1ccc(N2CCOCC2)c(NC(=O)COc2ccc(C#N)cc2)c1	6%
COC(=O)C1=CN(c2ccc(Cl)cc2)C=C(C(=O)OC)C1c1ccc([N+](=O)[O-])cc1	-10%
CCN(CC)S(=O)(=O)c1cccc(C(=O)NN2Cc3ccccc3C2=N)c1	-10%
Cc1ccc2c(c1)/C(=N/O)CCS2	4%
Cc1cc(C)nc(NC(=O)Cc2ccc(Cl)cc2)c1	-9%
Cc1cc(O)ccc1C1(c2ccc(O)cc2C)OC(=O)c2ccccc21	3%
CC(=O)c1ccc(NC(=O)CSc2nnc(-c3ccncc3)n2C2CC2)cc1	8%
C=CC[N+]1(CC#Cc2ccccc2)CCCC1	14%
Cc1ccc(S(=O)(=O)NCC(C)NC(=O)CN2CCOCC2)cc1 (stereo not drawn)	5%
CC(=O)Nc1cccc(NC(=O)C(C)N2c3cccc4cccc(c34)S2(=O)=O)c1 (stereo not drawn)	-5%
CCn1c(SCC(=O)c2ccc(F)cc2)nnc1-c1ccoc1C	?
CCN(C(=O)CSc1nc2ccccc2c(=O)n1-c1cccc(C)c1)C1CCS(=O)(=O)C1 (stereo not drawn)	-14%
CC(C)(C)OC(=O)[C@H](Cc1ccccc1)NC(=O)c1nc[nH]c1C(=O)NCCCCCN	4%
Cc1cc(C(=O)NNS(=O)(=O)c2ccc(F)cc2)nn1C(C)(C)C	-3%

More compounds follow.
SMILES	VDR inh
CCOc1cccc2cc(C(N)=O)c(=N)oc12	-9%
COc1cccc(CNC(=O)c2ccc(NC(=O)N3CC(C)Sc4ccccc43)cc2)c1 (stereo not drawn)	22%
Cc1ccc(NC(=O)c2ccccc2-c2cc(C)no2)cc1	31%[activator]
O=C(Nc1ccon1)c1cc2c(s1)CCCCCC2	5%
O=C(C1=C[C@@H](C2CCCCC2)C[C@@H](OCc2ccc(CO)cc2)O1)N1CCN(Cc2ccccc2)CC1	-21%
COc1ccc(OCC#CCN2CC(C)OC(C)C2)cc1 (stereo not drawn)	10%
CC1=CC(C)(C)N(C(=O)CN2C(=O)c3ccccc3C2=O)c2ccc(C)cc21	9%
COc1ccccc1C(=O)NNC(=O)CCN1C(=O)/C(=C\c2ccccc2)SC1=S	-11%
O=[N+]([O-])c1ccc(S(=O)(=O)CC2CSc3nc4ccccc4n32)cc1 (stereo not drawn)	-4%
CCOc1cccc2sc(NN)nc12	5%
O=C(c1ncn(Cc2ccccc2)c1C(=O)N1CCc2ccccc2C1)N1CCc2ccccc2C1	13%
O=C(NNC(=O)c1csc(-c2cccnc2)n1)Nc1ccc(Cl)cc1	5%
CC(C)N1CCC(N2CCN(Cc3cccc4nonc34)CC2CCO)CC1 (stereo not drawn)	-9%
O=C(NC1CCCC1)C(c1ccsc1)N(Cc1ccco1)C(=O)Cc1cccs1 (stereo not drawn)	15%
Cc1ccccc1Nc1nc(N)nc(CSc2nnc3ccccn23)n1	-7%
CCCn1c(SCC(=O)NCC)nc2sc3c(c2c1=O)CCC3	3%
O=C(NC1CCN(Cc2ccccc2)CC1)c1cc(Br)c(Br)[nH]1	10%
COc1ccc(N2CCN(C(=O)C3CCCO3)CC2)cc1 (stereo not drawn)	-5%
COc1ccc(N2CCN(C(CNC(=O)C(=O)NCc3ccncc3)c3ccco3)CC2)cc1 (stereo not drawn)	-10%
COc1ccc(CCNCC(=O)Nc2ccccc2C(F)(F)F)cc1	-26%
O=C(Nc1nc(-c2ccc(Cl)cc2)cs1)C1CCCO1 (stereo not drawn)	9%
O=C1NCCN(C(=O)CCc2nnc(-c3ccsc3)o2)C1c1ccc(F)cc1 (stereo not drawn)	-3%
CC1([N+](=O)[O-])COC(c2cccc3ccccc23)OC1 (stereo not drawn)	18%

These rows are one share of the data; rates above refer to the full screens.
